Screens (PubChem BioAssay)
Lassa entry inh: Lassa virus entry inhibition; Lassa virus pseudotype entry inhibition, cell reporter; control for the full effect not named in the record; Potency, µM (titrated, usually from 37.9 µM), without a hit: top-dose activity change, negative = inhibition, hits mostly inhibitors; 300,000 compounds, 1.2% hits; AID 540256; active means well fitted inhibition curve with a large enough effect; inconclusive means small, poorly fitted or top-dose-only effect, or effect the other way; inactive means flat fitted curve, though single readings scatter; tested in HEK293 cells; note: % is set by controls: 0 for no effect and ±100 for the full control effect; nearly all actives have a fitted effect of over 50% in size; luciferase read-out
RE007 growth inh: less growth of the S. pombe RE007 Vpr strain; S. pombe RE007 Vpr strain, BacTiter-Glo ATP luminescence, 24 h; control for the full effect not named in the record; Potency, µM (highest dose often 92.2 µM), for the others: at the highest dose activity change, negative = less growth; 360,000 compounds, 0.21% hits; active = well fitted falling curve with a large enough effect; inconclusive = small, poorly fitted or top-dose-only effect; inactive = no such curve, though single readings can be large or run the other way;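 note: % is set by controls: 0 for no effect and ±100 for the full control effect; nearly all actives have a fitted effect of over 50% in size; the assay follows cell death caused by Vpr and the record does not say whether a fall means rescue or toxicity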
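Fission yeast strain RE007, carrying one chromosomally integrated HIV-1 vpr copy, was seeded at OD 0.01 in PMG+AL medium with 23 nL pinned compound. After 24 h at 30 °C and 99% humidity, viability was read by BacTiter-Glo luminescence.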
Cruzain noTriton: inhibitors of Trypanosoma cruzi cruzain without detergent; purified cruzain, Z-FR-AMC fluorescence, no detergent; Potency, µM, for the others: max response, negative = inhibition, most hits filed as inhibitors; 200,000 compounds, 2.3% hits; AID 1476;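 note: plate controls were enzyme without inhibitor for no effect and buffer without enzyme for full effect; nearly all actives have a fitted effect of over 40% in size; top concentration of the series not given in the record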
Target sequence (P25779 123-467 limits assumed): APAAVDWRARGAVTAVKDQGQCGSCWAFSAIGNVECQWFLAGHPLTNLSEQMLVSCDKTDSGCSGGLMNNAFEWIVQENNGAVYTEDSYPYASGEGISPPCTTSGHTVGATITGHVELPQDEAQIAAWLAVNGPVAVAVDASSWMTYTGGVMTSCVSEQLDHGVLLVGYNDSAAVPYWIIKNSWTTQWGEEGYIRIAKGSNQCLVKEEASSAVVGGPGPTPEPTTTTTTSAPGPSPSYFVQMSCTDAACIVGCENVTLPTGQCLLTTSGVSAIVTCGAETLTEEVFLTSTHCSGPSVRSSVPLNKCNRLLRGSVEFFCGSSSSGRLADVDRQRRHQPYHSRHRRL
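Purified cruzain at 1.5 nM, pre-incubated 15 min with compound at room temperature in 100 mM sodium acetate pH 5.5, 5 mM DTT, 0.00005% Triton X-100. Reaction started with 2 uM Z-FR-AMC; AMC fluorescence increase over 60 s gives rate.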
NS1 function inh: influenza NS1 inhibition; S. cerevisiae slowed by influenza A NS1, growth recovery by OD600; Potency, µM (doses to about 46.1 µM), without a hit: top-dose activity, positive = more growth; 270,000 compounds, 0.4% hits; active means well fitted rising curve with a large enough effect; inconclusive means small, poorly fitted or top-dose-only effect; inactive means no such curve, though single readings can be large or run the other way; note: nearly all actives have a fitted effect of over 50% in size
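Read-out: OD600 growth recovery of NS1-expressing budding yeast. Cells grown overnight at 30C in -URA glucose medium, washed, resuspended and diluted 1:100 in 2% galactose assay medium, pH 6.0. Same strain lacking NS1 served as positive control.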
StopGo reporter: FMDV 2A StopGo reporter, luciferase signal | human cells with a luciferase reporter of 2A StopGo recoding; control for the full effect not named in the record | Potency, µM (titrated, usually from 57.9 µM), without a hit: at the top dose signal change, negative = less light | 410,000 compounds, 1.2% hits; active = well fitted falling curve with a large enough effect; inconclusive = small, poorly fitted or top-dose-only effect; inactive = no such curve, though single readings can be large or run the other way; tested in HEK293T cells; note: % is set by controls: 0 for no effect and ±100 for the full control effect; nearly all actives have a fitted effect of over 45% in size; luciferase light after 4 h
Marburg entry inh: blocks Marburg virus binding to or entry into cells | Marburg virus pseudotyped entry inhibition, cell reporter; control for the full effect not named in the record; about a third of the inactives were read at about 46 µM | Potency, µM (titrated, usually from 37.8 µM), inactives show at the highest dose activity change, negative = inhibition, usual class: inhibitors | 300,000 compounds, 1.8% hits | AID 540276; active = well fitted inhibition curve with a large enough effect; inconclusive = small, poorly fitted or top-dose-only effect, or effect the other way; inactive = flat fitted curve, though single readings scatter; tested in HEK293 cells; about a fifth of its hits are not listed in these tables; note: % is set by controls: 0 for no effect and ±100 for the full control effect; luciferase read-out
Cruzain inh Det: inhibitors of Trypanosoma cruzi cruzain with detergent | purified cruzain, Z-FR-AMC fluorescence, 0.01% Triton | Potency, µM, for inactives: max response, negative = inhibition, most hits filed as inhibitors | 200,000 compounds, 0.43% hits;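 note: plate controls were neutral wells for no effect and buffer without enzyme for full effect; nearly all actives have a fitted effect of over 40% in size; top concentration of the series not given in the record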
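Enzyme 1.5 nM, Z-FR-AMC 2 uM, NaOAc 100 mM pH 5.5, DTT 5 mM, Triton X-100 0.01%; 15 min RT compound preincubation; kinetic ex360/em450, 60 s delta.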
SARS PLpro yeast: SARS-CoV PLP inhibition in yeast | S. cerevisiae expressing SARS-CoV PLpro, growth rescue; control for the full effect not named in the record | Potency, µM (highest dose often 32.9 µM), without a hit: at the top dose activity, positive = growth rescue | 330,000 compounds, 0.19% hits; active means well fitted rising curve with a large enough effect; inconclusive means small, poorly fitted or top-dose-only effect; inactive means no such curve, though single readings can be large or run the other way; note: 0% is about no effect; nearly all actives have a fitted effect of over 55% in size; growth read by luminescence after 48 h
The depositor's hits bear a star; ? = inconclusive; / = no result given; & = joins results of further samples; [ ] = dose if it differs, or a comment. Unless noted, calls come from the whole dose curve; as a rule, active = well fitted curve in the direction sought with a large enough effect; inconclusive = small, poorly fitted or top-dose-only effect, or another doubt; inactive = no such curve, though single readings can be large; an effect the other way counts as inactive or inconclusive. Potency is the fitted concentration of half-maximal effect.

Values in the order – StopGo reporter	RE007 growth inh	Marburg entry inh	Cruzain inh Det	NS1 function inh	Cruzain noTriton	Lassa entry inh	SARS PLpro yeast
Nc1c(C(=O)c2ccc(Br)s2)oc2ccccc12
 : 86%[activator]	-28%	?	-5.0%	-70%	-28%	13%	-18%
CC(=O)Nc1ccc(NC(=O)c2ccc(OCc3c(C)noc3C)cc2)cc1
 : -7%	2%	-3%[46.1 µM]	/	/	/	0%[46.1 µM]	-4%
CCC(=O)N1CCN(c2ccc(NC(=O)c3ccc4ccccc4c3)cc2)CC1
 : 6%	-7%	17%[46.1 µM]	/	-1%	/	27%[46.1 µM]	1%
CCOC(=O)c1c(NC(=O)/C=C/c2ccc(OC)c(OC)c2)sc(C(C)=O)c1C
 : 0%	/	/	4.0%	/	-5%	1%[46.1 µM]	/
Nc1ccc2nc(-c3ccc(-c4nc5ccc(N)cc5[nH]4)cc3)[nH]c2c1
 : -22%	-1%	/	/	-44%	/	/	-1%
COc1ccc(-c2ccc(CCC(=O)O)n2CC2CCCO2)cc1 (stereo not given)
 : 25%	-10%	?	/	/	/	?	1%
O=C(COC(=O)c1cc(-c2ccncc2)nc2ccccc12)Nc1ccc2c(c1)OCO2
 : /	/	0%	-5.5%	14%	-11%	1%	2%
S=c1[nH]nc(-c2ccccc2)n1/N=C/c1cccs1
 : /	-13%	12%	-4.2%	11%	-10%	8%	-1%
CN1C(=O)C2(OCC(C)([N+](=O)[O-])CO2)c2ccccc21 (stereo not given)
 : -16%	3%	-1%[46.1 µM]	/	-1%	/	19%[46.1 µM]	1%
COc1ccc(-c2nnc3sc(-c4ccc(Br)o4)nn23)cc1OC
 : /	/	1%	8.9%	-9%	-13%	/	5%

Reprinted from the part before: 2 compounds, followed by the next part.
Values in the order – StopGo reporter	RE007 growth inh	Marburg entry inh	Cruzain inh Det	NS1 function inh	Cruzain noTriton	Lassa entry inh	SARS PLpro yeast
CN1C(=O)C2(OCC(C)([N+](=O)[O-])CO2)c2ccccc21 (stereo not given)
 : -16%	3%	-1%[46.1 µM]	/	-1%	/	19%[46.1 µM]	1%
COc1ccc(-c2nnc3sc(-c4ccc(Br)o4)nn23)cc1OC
 : /	/	1%	8.9%	-9%	-13%	/	5%
Cc1cc(NC(=O)CSc2ccc(-c3ccccc3)nn2)no1
 : -4%	-2%	-21%	-2.3%	-3%	-3%	-3%	-4%
COc1ccc(NC(=O)CCN2C(=O)c3ccccc3C2=O)c(OC)c1
 : 5%	10%	-3%	/	20%	/	2%	-2%
COc1cccc(C2C3=C(CC(C)(C)CC3=O)Nc3cc4c(cc32)OCO4)c1 (stereo not given)
 : -9%	12%	/	-6.3%	-8%	-2%	/	4%
COc1cc2ccccc2cc1C(=O)NCCCN1CCOCC1
 : 5%	-13%	-5%[46.1 µM]	/	/	/	2%	-5%
C/C(=N\NC(=S)Nc1c(C)cccc1C)c1cc2ccccc2o1
 : -26%	8%	?	-13%	11%	-29%	?	6%
CC(C)C(C(=O)NC1CCCC1)N(CC1CCCO1)C(=O)CNS(=O)(=O)c1ccc(F)cc1 (stereo not given)
 : 11%	18%	2%[46.1 µM]	/	1%	/	8%	-2%
COC(=O)COc1cc(C)cc2oc(=O)c3c(c12)CCCC3
 : /	4%	3%	-9.9%	-62%	-3%	1%	-30%
Cc1cccc(/C=N/NC(=O)CN2CCCCCCC2)c1
 : -3%	-3%	?	-0.4%	-2%	0%	?	-1%
O=C(Nc1c(Cl)cc(Cl)cc1C(=O)NCC1CCCO1)c1ccco1 (stereo not given)
 : 3%	3%	5%	2.6%	0%	-3%	?	-1%
COc1ccc(-n2nc(C(=O)NCc3ccco3)c3ccccc3c2=O)cc1
 : -12%	-4%	?	-1.1%	1%	-6%	2%	-7%
NC(=O)c1c(NC(=O)C2c3ccccc3Oc3ccccc32)sc2c1CCCCC2
 : -15%	-2%	4%	-16%	22%	-17%	22%	-4%
N#Cc1ccsc1NC(=O)CN1CCN(S(=O)(=O)c2ccccc2C(F)(F)F)CC1
 : -28%	23%	5%	-2.0%	-1%	12%	-1%	14%
CCOC(=O)c1cc(-c2ccco2)nc2c1c(C)nn2-c1cccc(Cl)c1
 : -2%	18%	0%	-17%	4%	6%	-24%	-5%
Cc1ccc(NC(=O)CSc2ncccn2)cc1S(=O)(=O)N1CCOCC1
 : 21%	1%	11%	/	/	/	3%	2%
Cc1cccc(-n2c(=S)[nH]c3nc4c(cc3c2=O)COC(C)(C)C4)c1
 : -16%	18%	12%[14.2 µM]	/	-1%	/	11%	1%
CC(NC(=O)CN1C(=O)NC2(CCCC2)C1=O)c1ccc(Cl)cc1Cl (stereo not given)
 : -28%	?	-9%	/	/	/	14%	-13%
COc1cc(C2C(C#N)=C(N)Oc3cc(C)n(CCN4CCOCC4)c(=O)c32)cc(OC)c1OC (stereo not given)
 : -23%	-19%	0%&0%	-2.7%	9%	0%	0%	1%
O=C(CCc1nc2ccccc2s1)OCC(=O)N1CCN(C(=O)c2ccco2)CC1
 : 14%	3%	3%&3%	-1.7%	1%	8%	4%	3%
COCCCNC(=S)N1CCN(c2nc(-c3ccccc3)cs2)CC1
 : ?	-1%	/	/	3%	/	/	-5%
O=C(NCCCN1CCN(Cc2ccccc2Cl)CC1)Nc1ccccc1
 : -8%	8%	-26%[46.1 µM]	2.5%	6%	-1%	3%	-5%

Only Marburg entry inh, for five of the compounds above:
SMILES	Marburg entry inh
N#Cc1ccsc1NC(=O)CN1CCN(S(=O)(=O)c2ccccc2C(F)(F)F)CC1	5%
CCOC(=O)c1cc(-c2ccco2)nc2c1c(C)nn2-c1cccc(Cl)c1	0%
Cc1ccc(NC(=O)CSc2ncccn2)cc1S(=O)(=O)N1CCOCC1	11%
Cc1cccc(-n2c(=S)[nH]c3nc4c(cc3c2=O)COC(C)(C)C4)c1	12%[14.2 µM]
CC(NC(=O)CN1C(=O)NC2(CCCC2)C1=O)c1ccc(Cl)cc1Cl (stereo not given)	-9%

Further records:
Values in the order – StopGo reporter	RE007 growth inh	Marburg entry inh	Cruzain inh Det	NS1 function inh	Cruzain noTriton	Lassa entry inh	SARS PLpro yeast
CCCNC(=O)C1CCC(Cn2c(=O)c3sccc3n(Cc3ccccc3F)c2=O)CC1 (stereo not given)
 : -18%	/	/	-1.6%	/	3%	10%[46.1 µM]	/
O=C(OCCN=C1NS(=O)(=O)c2ccccc21)c1ccccc1
 : 45%[activator]	3%	-12%	1.7%	3%	0%	21%	12%[6.58 µM]
CCc1ccccc1Nc1nc2ccccc2c2nncn12
 : -10%	/	3%[46.1 µM]	-4.8%	/	-3%	27%[46.1 µM]	/
Cc1ccccc1CNC(=O)C(C)N(c1ccccc1)S(C)(=O)=O (stereo not given)
 : -14%	/	5%[46.1 µM]	-2.0%	/	-10%	-17%[46.1 µM]	/
O=C(Nc1ccc([N+](=O)[O-])cc1)/C(=C/c1cccc([N+](=O)[O-])c1)NC(=O)C1CCCCC1
 : /	0%	?	-2.6%	9%	9%	-3%	2%
Cc1cccc2cc(CN(CCN(C)C)C(=S)NCc3ccco3)c(=O)[nH]c12
 : 5%	-5%	?	-6.5%	5%	-7%	15%	-3%
C=CCOC(=O)C1=C(C)N=c2s/c(=C3\C(=O)N(CC(=O)O)c4ccccc43)c(=O)n2C1c1ccc(OC)cc1 (stereo not given)
 : ?	-1%	/	/	20%	/	/	1%
O=C(N1CCOCC1)N1CCc2ccccc21
 : -8%	0%	/	/	7%	/	/	5%
COc1cc2c(cc1NC(=O)COC(=O)[C@@H](NC(=O)c1ccccc1F)C(C)C)oc1ccccc12
 : 2%	/	-21%	-10%	?	?	13%	4%
COc1ccccc1C(=O)NC(CCSC)C(=O)NCCCSc1ccccc1 (stereo not given)
 : -14%	-1%	?	/	/	/	?	2%
CCCCNC(=O)C1CCN(S(=O)(=O)c2ccc3c(ccn3CC)c2)CC1
 : 0%	/	/	1.6%	/	17%	9%[46.1 µM]	/
Cc1cc(N2CCCCC2)nc2ccc(NC(=O)c3cccc(Cl)c3)cc12
 : -4%	/	/	-10%	/	-11%	4%[46.1 µM]	/
CNS(=O)(=O)c1cccc(C(=O)OCC(=O)Nc2ccc(OC)cc2[N+](=O)[O-])c1
 : -7%	1%	9%	/	/	/	-3%	1%
C=C(C)Cn1c(N(CCO)Cc2ccccc2)nc2c1c(=O)[nH]c(=O)n2C
 : -22%	0%	/	-0.4%	4%	8%	/	10%
COc1ccc(C2CC2/C(C)=N/OC(=O)c2ccc(F)cc2)cc1 (stereo not given)
 : 11%	-9%	3%[46.1 µM]	/	/	/	1%[46.1 µM]	-32%
CCC(C)OC(=O)c1cc(C)nc2c(Br)cc(Br)cc12 (stereo not given)
 : 12%	21%	-3%	-3.2%	9%	-10%	-11%	-20%
COc1cc(/C=N/n2c(C)n[nH]c2=S)ccc1OCc1ccccc1
 : 0%	-13%	?	-11%	-14%	8%	5%	-18%
CCCCCCOc1ccc(/C(C)=N/NC2=NCCN2)cc1
 : -18%	35µM*	/	/	-121%	/	/	-7%
Cc1nc(S(=O)(=O)N(C)c2ccccc2)c(C#N)c(C)c1Cl
 : ?	13%	?	-0.6%	0%	-6%	?	9%
Cc1cc(C)cc(OCC(=O)OCC(=O)Nc2cc(C)nn2-c2ccccc2)c1
 : -11%	-5%	4%	/	/	/	-24%	-2%
COc1ccc(CCNC(=O)CC2(CC3=NS(=O)(=O)c4ccccc4N3)CCCC2)cc1OC
 : 21%	1%	/	/	5%	/	/	-3%
CCC(=O)c1cn(CC(=O)Nc2ccccc2Cl)c2ccccc12
 : -4%	9%	?	/	-1%	/	-22%[46.1 µM]	-4%
COc1cc2c(cc1OC)C(c1cccnc1)CC(=O)N2 (stereo not given)
 : -7%	-1%	-1%	1.3%	1%	0%	0%	11%
CC(C)(C)c1ccc(OCCC(=O)NC2=NCCS2)cc1
 : 22%	?	-2%	-0.8%	-156%	9%	?	-29%
Cc1ccccc1NC(=O)CNc1ccc(Cl)c(C(F)(F)F)c1
 : -16%	-6%	?	-1.3%	-22%	-11%	2%	-11%

Hits appear at their usual frequency; about 4.7% have a hit in one of these screens.
